# Screening results from PubChem BioAssay.
# SARS PLpro yeast = blocks SARS-CoV papain-like protease in a yeast assay. S. cerevisiae expressing SARS-CoV PLpro, growth rescue; control for the full effect not named in the record. Potency, µM (highest dose often 32.9 µM), inactives show at the highest dose activity, positive = growth rescue. hit rate 0.19% among 330,000. AID 485353; note: 0% is about no effect; nearly all actives have a fitted effect of over 55% in size; growth read by luminescence after 48 h
# 2A StopGo = lowers the luciferase signal of an FMDV 2A StopGo reporter. human cells with a luciferase reporter of 2A StopGo recoding; control for the full effect not named in the record. Potency, µM (doses to about 57.9 µM), for inactives: at the top dose signal change, negative = less light. hit rate 1.2% among 410,000; active = well fitted falling curve with a large enough effect; inconclusive = small, poorly fitted or top-dose-only effect; inactive = no such curve, though single readings can be large or run the other way; tested in HEK293T cells; note: % is set by controls: 0 for no effect and ±100 for the full control effect; nearly all actives have a fitted effect of over 45% in size; luciferase light after 4 h
# Cruzain inh Det = blocks cruzain activity in presence of Triton detergent | purified cruzain, Z-FR-AMC fluorescence, 0.01% Triton | Potency, µM, without a hit: max response, negative = inhibition, most hits filed as inhibitors | hit rate 0.43% among 200,000 | P25779; active = well fitted curve in the direction sought with a large enough effect; inconclusive = small, poorly fitted or top-dose-only effect, or another doubt; inactive = no such curve, though single readings can be large; an effect the other way counts as inactive or inconclusive;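 note: plate controls were neutral wells for no effect and buffer without enzyme for full effect; nearly all actives have a fitted effect of over 40% in size; top concentration of the series not given in the record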
# Target sequence (P25779 123-467 limits assumed): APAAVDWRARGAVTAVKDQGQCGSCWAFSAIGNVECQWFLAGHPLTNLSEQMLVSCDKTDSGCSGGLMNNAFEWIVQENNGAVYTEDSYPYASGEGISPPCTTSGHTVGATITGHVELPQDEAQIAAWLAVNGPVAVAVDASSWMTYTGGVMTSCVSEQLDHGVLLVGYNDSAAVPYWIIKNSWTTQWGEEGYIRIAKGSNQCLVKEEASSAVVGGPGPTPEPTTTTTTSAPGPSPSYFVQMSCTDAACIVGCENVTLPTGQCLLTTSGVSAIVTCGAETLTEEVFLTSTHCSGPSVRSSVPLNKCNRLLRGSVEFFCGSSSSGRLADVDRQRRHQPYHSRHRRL
#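 Read-out: AMC fluorescence (360 nm excitation, 450 nm emission), four reads over 2 min, first-to-third difference used. Conditions: cruzain 1.5 nM, Z-FR-AMC 2 uM, pH 5.5 acetate, 5 mM DTT, 0.01% Triton X-100.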
# Marburg entry inh = blocks Marburg virus binding to or entry into cells; Marburg virus pseudotyped entry inhibition, cell reporter; control for the full effect not named in the record; about a third of the inactives were read at about 46 µM; Potency, µM (doses to about 37.8 µM), inactives show at the top dose activity change, negative = inhibition, hits mostly inhibitors; hit rate 1.8% among 300,000; AID 540276; active = well fitted inhibition curve with a large enough effect; inconclusive = small, poorly fitted or top-dose-only effect, or effect the other way; inactive = flat fitted curve, though single readings scatter; tested in HEK293 cells; about a fifth of its hits are not listed in these tables; note: % is set by controls: 0 for no effect and ±100 for the full control effect; luciferase read-out
# LASV entry inh = blocks Lassa virus binding to or entry into cells. Lassa virus pseudotype entry inhibition, cell reporter; control for the full effect not named in the record. hit rate 1.2% among 300,000. Potency, µM (series often up to 37.9 µM), inactives show top-dose activity change, negative = inhibition, usual class: inhibitors; active means well fitted inhibition curve with a large enough effect; inconclusive means small, poorly fitted or top-dose-only effect, or effect the other way; inactive means flat fitted curve, though single readings scatter; tested in HEK293 cells; note: % is set by controls: 0 for no effect and ±100 for the full control effect; nearly all actives have a fitted effect of over 50% in size; luciferase read-out
# Cruzain inh noDet = cruzain (T. cruzi) inhibition without detergent | P25779 | purified cruzain, Z-FR-AMC fluorescence, no detergent | Potency, µM, for inactives: max response, negative = inhibition, actives largely listed as inhibitors | hit rate 2.3% among 200,000 | AID 1476; active = well fitted curve in the direction sought with a large enough effect; inconclusive = small, poorly fitted or top-dose-only effect, or another doubt; inactive = no such curve, though single readings can be large; an effect the other way counts as inactive or inconclusive;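 note: plate controls were enzyme without inhibitor for no effect and buffer without enzyme for full effect; nearly all actives have a fitted effect of over 40% in size; top concentration of the series not given in the record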
#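 Purified cruzain at 1.5 nM, pre-incubated 15 min with compound at room temperature in 100 mM sodium acetate pH 5.5, 5 mM DTT, 0.00005% Triton X-100. Reaction started with 2 uM Z-FR-AMC; AMC fluorescence increase over 60 s gives rate.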
# NS1 inh = influenza NS1 inhibition; S. cerevisiae slowed by influenza A NS1, growth recovery by OD600; Potency, µM (doses to about 46.1 µM), for the others: at the highest dose activity, positive = more growth; hit rate 0.4% among 270,000; AID 2326; note: actives are rising curves; nearly all actives have a fitted effect of over 50% in size
#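 In this qHTS, NS1 from influenza A is expressed in budding yeast, where it slows growth. Cells are switched from glucose to 2% galactose medium (pH 6.0, -URA), treated with compound, and growth recovery is read at OD600.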
# RE007 growth inh = less growth of the S. pombe RE007 Vpr strain; S. pombe RE007 Vpr strain, BacTiter-Glo ATP luminescence, 24 h; control for the full effect not named in the record; Potency, µM (series often up to 92.2 µM), inactives show top-dose activity change, negative = less growth; hit rate 0.21% among 360,000; AID 651644; active = well fitted falling curve with a large enough effect; inconclusive = small, poorly fitted or top-dose-only effect; inactive = no such curve, though single readings can be large or run the other way;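 note: % is set by controls: 0 for no effect and ±100 for the full control effect; nearly all actives have a fitted effect of over 50% in size; the assay follows cell death caused by Vpr and the record does not say whether a fall means rescue or toxicity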
#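 Fission yeast RE007 carrying one integrated HIV-1 vpr copy, seeded at OD 0.01 in PMG+AL medium with 23 nL pinned compound. Grown 24 h at 30 degrees; viability read by BacTiter-Glo luminescence after 5 min.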
# An asterisk follows results filed as active; ? = inconclusive; nt = not tested or not shown; & = joins results of further samples; [ ] = remark or other dose. Unless noted, calls come from the whole dose curve; as a rule, active means well fitted rising curve with a large enough effect; inconclusive means small, poorly fitted or top-dose-only effect; inactive means no such curve, though single readings can be large or run the other way. Potency is the fitted concentration of half-maximal effect.
SMILES,SARS PLpro yeast,2A StopGo,Cruzain inh Det,Marburg entry inh,LASV entry inh,Cruzain inh noDet,NS1 inh,RE007 growth inh
O=C(CN(C(=O)CNC(=O)c1cccs1)c1ccccc1F)NC1CCCCC1,2.7%,42.2%[activator],nt,5.9%,4.2%,nt,-3.3%,2.9%
O=C(NNC(=O)c1ccccc1[N+](=O)[O-])c1ccco1,2.0%,13.3%,nt,-17.8%[46.1 µM],-1.9%,nt,nt,3.5%
CC1CC(C)CN(CC(O)COc2ccc3c(c2)CCC3)C1 (stereo not drawn),-16.1%,-17.8%,0.9%,?,-28.3%,8.0%,-3.8%,2.0%
CC(C(=O)Nc1ccc(N2CCOCC2)cc1)N1C(=O)c2ccccc2C1=O (stereo not drawn),2.6%,nt,2.4%,0.1%,8.7%,-6.1%,-0.1%,2.5%
CC(C(=O)Nc1cccc(S(=O)(=O)N2CCOCC2)c1)N1CCN(C/C=C/c2ccccc2)CC1 (stereo not drawn),0.0%,?,nt,?,?,nt,nt,-7.4%
N=C1C=CC=C2C1=NC1(CCCCC1)N2O,-3.8%,nt,-1.4%,-3.4%,-4.3%,-2.3%,5.0%,11.3%
COc1ccccc1NC(=O)NCc1ccc(C)n1C,2.3%,-1.2%,nt,nt,nt,nt,-3.3%,-5.8%
Cc1c(NC(=O)c2ccco2)c(=O)n(-c2ccccc2)n1C,-0.2%,-0.4%,nt,nt,nt,nt,15.8%,3.5%
CCCCn1cnc2cc(NCc3cccc(OC)c3O)ccc21,-1.9%,34.2%[activator],-4.4%,-2.0%,-14.5%,-6.4%,-19.3%,-11.9%
O=C(NCCc1ccc(Cl)cc1)C1CCCN(S(=O)(=O)c2cnc[nH]2)C1 (stereo not drawn),-6.2%,-1.8%,-2.5%,nt,nt,2.8%,?,1.1%
COc1ccc(Br)cc1C(=O)Nc1ccc(N2CCCC2)cc1,2.7%,-18.2%,nt,?,-6.7%[46.1 µM],nt,5.4%,3.9%
Nc1c(-c2nc(-c3ccccc3Cl)no2)nnn1-c1ccccc1F,nt,54.9%[activator],-0.2%,nt,1.0%[46.1 µM],5.7%,nt,nt
CN1CCN(c2oc(COc3ccc(-c4ccccc4)cc3)nc2C#N)CC1,-8.5%,nt,-3.1%,?,-14.3%,?,-99.1%,5.4%
O=C(N/N=C1\CC(c2ccccc2)Oc2ccccc21)c1cccnc1 (stereo not drawn),3.1%,-9.4%,nt,-23.0%,?,nt,nt,-19.5%
NNCc1cccc(O)c1,1.1%,27.7%,-4.4%,5.2%&5.2%&5.2%&5.2%&5.2%,nt,-10.4%,-14.9%&-36.5%,-2.6%
CCc1nnc(NC(=O)c2ccc(N3C(=O)CCC3=O)cc2)s1,-2.7%,55.8%[activator],-8.4%,nt,nt,-2.3%,?,2.1%
CC1CCN(C(=O)c2cc3c(=O)n(C)c4ccccc4c3s2)CC1,nt,26.9%,-11.0%,3.3%[46.1 µM],-26.0%[46.1 µM],?,nt,nt
O=C(/C=C/c1ccc2c(c1)OCO2)Nc1nncs1,0.0%,57.8%[activator],nt,nt,nt,nt,-1.0%,-7.4%
CCNC(=S)N(CCCN(CC)CC)Cc1cc2cc3c(cc2[nH]c1=O)OCO3,-4.0%,-1.6%,nt,nt,nt,nt,8.9%,12.3%
COc1ccc(-c2csc(-c3c(N)c(C(=O)c4ccc(OC)c(OC)c4)n4ccccc34)n2)cc1,nt,-3.1%,-3.4%,-6.5%[46.1 µM],23.4%[46.1 µM],-8.8%,nt,nt
CCCOc1ccc(C(=O)Nc2cc(-c3nn4c(C)nnc4s3)ccc2C)cc1,11.5%,-3.0%,1.6%,nt,nt,-26.5%,4.47µM*,1.5%
Cc1cccc(C)c1-n1nnnc1-c1cnccc1C(F)(F)F,0.2%,18.7%,nt,10.4%[46.1 µM],25.5%[46.1 µM],nt,6.6%,-10.0%
Cc1cc(C)n(-c2nc3ccccc3nc2Nc2ccc(Cl)c(C(=O)OC(C)C)c2)n1,nt,-16.7%,0.0%,24.1%[46.1 µM],4.7%[46.1 µM],5.1%,nt,nt
O=c1c2ccccc2c(=O)n(-c2ccccc2)n1CCCCBr,nt,-9.5%,nt,-5.9%[46.1 µM],-5.8%,nt,nt,8.1%
CCc1nc2ccccc2n2c(-c3ccc(C)cc3)c3c(=O)n(C)c(=O)n(C)c3c12,nt,-28.3%,-2.9%,-9.7%[46.1 µM],2.0%[46.1 µM],-2.0%,nt,nt

# (listing goes on)
SMILES,SARS PLpro yeast,2A StopGo,Cruzain inh Det,Marburg entry inh,LASV entry inh,Cruzain inh noDet,NS1 inh,RE007 growth inh
CCO[C@@H]1OC(C(N)=O)=C[C@H](c2ccc(C(F)(F)F)cc2)[C@H]1CCCO,0.8%,-16.1%,nt,nt,nt,nt,4.6%,-7.3%
COc1ccc(/C=N/NC2=NS(=O)(=O)c3ccccc32)cc1OC,1.0%,-3.4%,nt,-23.9%[46.1 µM],11.7%[46.1 µM],nt,?,3.4%
COc1ccc(NC(=O)CNC(=O)c2nn(-c3ccc(OC)cc3OC)c(=O)c3ccccc23)c(OC)c1,-0.4%,-1.3%,nt,?,-2.4%[46.1 µM],nt,1.1%,7.6%
COCC(C)N=C1NN=C(c2cccs2)C(CC(=O)O)S1 (stereo not drawn),1.6%,-2.8%,nt,nt,nt,nt,0.7%,0.8%
COc1cccc(CN(C)C(=O)CSCC(=O)Nc2ccc(C)cc2)c1OC,-0.6%,?,nt,29.2%,-8.5%[46.1 µM],nt,nt,-6.5%
CCCC12CN3CC(C)(CN(C1)C3c1c(C)[nH]c(=O)[nH]c1=O)C2=O (stereo not drawn),nt,-0.1%,0.0%,-0.6%[46.1 µM],-2.1%[46.1 µM],4.6%,nt,nt
COc1ccccc1C(=O)Nc1cccc(NC(C)=O)c1,26.6%,17.2%,-0.1%,?,-0.6%,-5.9%,-7.0%,17.1%
O=C(O)c1ccc(Cl)c(S(=O)(=O)N(Cc2ccccc2)c2ccc(F)cc2)c1,2.9%,-25.6%,nt,nt,nt,nt,3.6%,1.7%
CC(NC(=O)C(=O)N1CCCCC1)C(c1cccs1)N1CCN(c2ccccc2)CC1 (stereo not drawn),-6.4%,-2.9%,nt,9.3%[46.1 µM],4.0%[46.1 µM],nt,-4.9%,1.7%
Oc1c(C(Nc2ccccn2)c2cccnc2)cc(Cl)c2cccnc12 (stereo not drawn),2.51µM*,-24.6%,-0.6%,?,?,-4.8%,-55.5%,?
COc1ccc(-n2c(-c3cc(-c4ccccc4)sc3N)n[nH]c2=S)cc1,-0.5%,-5.6%,nt,?,-8.7%[46.1 µM],nt,?,-0.8%
CCc1ccc(N2C(=O)CC(N3CCN(c4ccccn4)CC3)C2=O)cc1 (stereo not drawn),-5.1%,-17.0%,nt,12.0%,1.0%,nt,-3.6%,?
Cn1nnnc1SCC(=O)N1CCCCC1,2.1%,2.5%,nt,-1.3%[46.1 µM],-3.6%[46.1 µM],nt,1.8%,-3.0%
COc1ccc(NC(=O)c2cccnc2N2CCCCC2)cc1,13.6%,-19.5%,-1.7%,-7.1%,-0.4%,3.0%,-6.7%,-7.4%
Cc1oc(-c2ccc(F)cc2F)nc1CN1C[C@@H]2C[C@@H](C1)c1cccc(=O)n1C2,0.3%,-26.0%,nt,-21.1%[46.1 µM],?,nt,6.8%,8.3%
COc1ccc(C(C(=O)NC2CCCC2)N(Cc2cccnc2)C(=O)c2snc(C(N)=O)c2N)cc1 (stereo not drawn),1.3%,-10.2%,nt,?,0.0%,nt,4.7%,-9.3%
CN(C)CC1CCCCC1OC(=O)c1ccc(Cl)c(Cl)c1 (stereo not drawn),-3.0%,-8.6%,-1.2%,-15.3%,1.5%,-3.8%,-14.2%,-4.4%
CCCCCCC(C)OC(=O)c1ccccc1C(=O)O (stereo not drawn),1.2%,-11.4%,nt,nt,nt,nt,-4.2%,6.1%
CCc1ccccc1NC(=O)C1CCCN1C(=O)NCc1ccccc1 (stereo not drawn),-1.6%,0.2%,nt,-2.0%[46.1 µM],nt,nt,3.2%,-13.9%
CC(=O)N1CCOc2ccc(S(=O)(=O)N3CCN(c4cccc(C(F)(F)F)c4)CC3)cc21,-2.1%,-11.9%,nt,nt,nt,nt,28.3%,8.3%
O=C(OCc1nc2ccccc2s1)c1cccs1,nt,11.2%,-0.4%,15.7%,4.9%,-3.8%,-9.7%,2.6%[3.69 µM]
COC(=O)c1cc(C(=O)OC)n(Cc2ccc(F)cc2)c1C,0.5%,-17.9%,nt,-0.6%[46.1 µM],19.6%[46.1 µM],nt,2.9%,-8.0%
Cc1ccc(NC(=O)CN2C(=O)CCc3cc(S(=O)(=O)N4CCOCC4)ccc32)cc1N(C)C,nt,-15.7%,-1.0%,nt,-1.4%[46.1 µM],-5.5%,nt,nt
COc1ccccc1NC(=O)Cn1cnc2c(nnn2-c2ccc(C)cc2)c1=O,-0.2%,-18.2%,nt,nt,nt,nt,-2.9%,?
Cc1c(CC=C(Cl)Cl)c(=O)[nH]c2c(C)cccc12,2.7%,-6.7%,0.0%,5.9%,-5.1%,2.51µM*,-6.7%,1.9%

# Later entries
SMILES,SARS PLpro yeast,2A StopGo,Cruzain inh Det,Marburg entry inh,LASV entry inh,Cruzain inh noDet,NS1 inh,RE007 growth inh
CCCC(=O)N(Cc1cc(=O)[nH]c2ccccc12)c1ccccc1,1.3%,1.1%,nt,-7.2%[46.1 µM],-11.7%,nt,7.8%,-3.6%
COc1ccc2nc(C)cc(N/N=C/c3ccc(F)cc3)c2c1,-3.5%,-8.5%,nt,?,?,nt,-3.9%,-5.1%
CC(CC(=O)NC1CCCCC1)S(=O)(=O)c1ccc2c(c1)CCN2C(=O)C1CC1 (stereo not drawn),-2.4%,-16.5%,nt,nt,nt,nt,3.0%,-8.8%
O=C(CCNS(=O)(=O)c1ccc(Br)cc1)NCc1ccc(F)cc1,14.6%,6.9%,nt,nt,nt,nt,2.1%,13.4%
O=C(c1ccccc1)N1CCN(C(=O)c2ccc3c(c2)OCO3)CC1,10.8%,13.0%,nt,-18.5%[46.1 µM],-16.5%,nt,3.3%,-1.7%
CCCCN(Cc1ccccc1)S(=O)(=O)c1cc(Br)cc2c1N(C(C)=O)C(C)C2 (stereo not drawn),-20.9%,-21.9%,-4.8%,?,?,?,-3.4%,11.1%
CCC1(c2ccccc2)NC(=O)N(CC(=O)N(C)CC(=O)Nc2c(C)cccc2C)C1=O (stereo not drawn),-0.6%,9.5%,nt,1.6%,-31.2%,nt,1.9%,6.0%
COc1ccc2oc(C(=O)OCC(=O)Nc3cc(S(=O)(=O)N4CCOCC4)ccc3C)c(C)c2c1,0.2%,-11.7%,nt,3.0%[46.1 µM],-4.8%,nt,nt,-27.1%
